VCAM-1 down imaging: inhibitors of TNFa-induced VCAM-1 surface display, imaging, high-content imaging, pooled HUVEC, TNFa stimulus (AID 456) | HUVEC TNFa-induced VCAM-1 surface expression, immunofluorescence imaging; numbers were filed only for top-ranked candidate wells | one-dose inhibition, % at 5 µM; IC50 in µM for titrated hits | 10,000 compounds, 0.2% hits;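 active means top tenth filtered wells with inhibition above zero that passed visual or statistical confirmation; inactive means the rest, including hits rejected on review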;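 further: 0% = stimulated vehicle wells and 100% = unstimulated cells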
VCAM-1 inhibition: inhibitors of TNFa-induced VCAM-1 surface display, cell-based, plate reader, pooled HUVEC, TNFa stimulus (AID 454); 10,000 compounds, 0.2% hits; inhibition, % at 5 µM; HUVEC TNFa-induced VCAM-1 surface immunofluorescence, plate reader; numbers were filed only for top-ranked candidate wells;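 active means compound among top-ranked inhibitors of TNF-induced VCAM-1 adhesion protein staining, with the hit upheld by image or statistical review; inactive means the rest, including hits rejected on review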;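 further: 0% = TNFa with vehicle and 100% = cells without TNFa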
FPRL1 binder: human FPRL1 ligands by binding competition, primary screen, cell-based, FPR counter-screen, flow cytometry; N-formyl peptide receptor 2 (Homo sapiens), P25090; FPRL1-expressing cells, fluorescent ligand binding inhibition; inhibition, %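 (tested at 6.7 µM)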; 24,000 compounds, 0.3% hits; AID 441, 2006;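 further: 0% = buffer alone and 100% = receptor blocker peptide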
Target sequence (P25090 whole entry, looked up): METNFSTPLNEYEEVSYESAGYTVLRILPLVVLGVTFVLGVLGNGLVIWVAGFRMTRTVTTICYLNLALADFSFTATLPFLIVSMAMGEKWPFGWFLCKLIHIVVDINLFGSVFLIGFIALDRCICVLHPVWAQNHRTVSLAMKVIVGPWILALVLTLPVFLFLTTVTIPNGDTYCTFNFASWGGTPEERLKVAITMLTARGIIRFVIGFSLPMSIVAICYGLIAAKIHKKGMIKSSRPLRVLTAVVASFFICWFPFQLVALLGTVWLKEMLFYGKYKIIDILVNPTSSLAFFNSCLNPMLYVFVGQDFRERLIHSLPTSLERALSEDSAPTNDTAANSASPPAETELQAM
VCAM-1 up imaging: enhancers of VCAM-1 display on endothelial cells, imaging, high-content imaging, pooled HUVEC, TNFa stimulus (AID 457); 10,000 compounds, 0.2% hits; Pooled HUVEC, TNFa-induced VCAM-1 immunofluorescence imaging; hits of this screen are not shown here; calls only;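 active means a top-ranked rise in VCAM-1 staining upheld on image or statistical review; inactive means the rest, including candidates rejected on review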;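 further: compounds tested at 5 µM in the well; cells exposed to compound for 24 hours before fixing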
FPR ligand: human FPR ligands by binding competition, primary screen, cell-based, FPRL1 counter-screen, flow cytometry. fMet-Leu-Phe receptor (Homo sapiens), P21462. 24,000 compounds, 0.74% hits. inhibition, %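 (tested at 6.7 µM)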. FPR-expressing cells, fluorescent ligand binding;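 further: 0% = buffer wells and 100% = receptor blocker peptide wells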
Target sequence (P21462 whole entry, looked up): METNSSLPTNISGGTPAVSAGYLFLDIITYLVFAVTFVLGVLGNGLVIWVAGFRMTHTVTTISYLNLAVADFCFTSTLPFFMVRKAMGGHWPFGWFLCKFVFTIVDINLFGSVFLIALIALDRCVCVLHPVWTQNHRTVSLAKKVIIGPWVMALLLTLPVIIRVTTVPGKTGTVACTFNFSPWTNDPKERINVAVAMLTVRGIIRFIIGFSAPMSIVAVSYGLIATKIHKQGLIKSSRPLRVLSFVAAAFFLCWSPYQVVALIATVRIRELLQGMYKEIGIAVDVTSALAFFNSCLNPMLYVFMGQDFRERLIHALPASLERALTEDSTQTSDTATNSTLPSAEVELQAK
* hit, by the source's call; i = inactive; · = not tested or not shown.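 How the source made its calls, unless noted: active means mean above 30%; inconclusive means self-fluorescent; inactive means the rest.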 A portion of the library. The share of hits here may be higher or lower than overall.

SMILES	VCAM-1 down imaging	VCAM-1 inhibition	FPRL1 binder	VCAM-1 up imaging	FPR ligand
CCCS(=O)(=O)N1CCCC(C(=O)NCc2ccc3c(c2)OCO3)C1 (stereo not drawn)	·	·	4	·	3
CCCCN(C)CCCNC(=O)C1CC(=O)N(Cc2ccc(OC)cc2)C1 (stereo not drawn)	·	·	2	·	-4
CCOC(=O)N1CCC(Nc2ncnc3c2cnn3-c2ccc(C)cc2C)CC1	i	i	0	i	-2
CCOC(=O)CC1(CC(=O)OCC)NC(=O)c2c(C)sc(C(=O)OCC)c2N1	i	i	-5	i	-3
O=c1cc(-c2ccccc2)nc(N2CCN(Cc3ccc4c(c3)OCO4)CC2)[nH]1	·	·	-4	·	-11
Cc1ccccc1NC(=O)C1CCN(c2cnccn2)CC1	i	i	-3	i	-6
O=C1C(=O)N(CCO)C(c2ccccc2)/C1=C(\O)c1ccccc1 (stereo not drawn)	·	·	-2	·	22
CC(=O)N1c2c(cc(Br)cc2S(=O)(=O)NCc2ccc3c(c2)OCO3)CC1C (stereo not drawn)	·	·	-8	·	-12
O=C(NCCc1ccccc1)C1CCCN(S(=O)(=O)c2cccc3nonc23)C1 (stereo not drawn)	·	·	6	·	-9
FC(F)(F)c1cc(-c2ccco2)nc(NCc2ccco2)n1	i	i	0	i	-4
CCOc1ccc(NC(=O)N2CCC(n3c(=O)[nH]c4ccccc43)CC2)cc1	·	·	0	·	-2
O=C(CSc1nccn1-c1ccccc1)N1CCc2ccccc21	·	·	13	·	27
CN(C)C(=O)COc1ccc2cc(-c3ccccc3)c(=O)oc2c1	i	i	-2	i	-7
Cc1ccc(-n2c(=O)[nH]c3c(C(N)=O)nc(-c4ccc(C)o4)nc32)cc1	·	·	5	·	10
O=C(NC1CCCCC1)c1cnn2c(C(F)(F)F)cc(-c3ccco3)nc12	·	·	0	·	-1
Cc1ccccc1-c1nnc(SCc2ccccc2F)o1	·	·	-9	·	5
COc1cccc(-c2nnc(SCC(=O)N3CC(C)CC(C)C3)o2)c1 (stereo not drawn)	·	·	0	·	2
NS(=O)(=O)c1ccc(CCNC(=O)C2CCCN2C(=O)OCc2ccccc2)cc1 (stereo not drawn)	·	·	4	·	-3
O=c1c(-c2ccc(F)cc2)coc2c3c(ccc12)OCCO3	i	i	-4	i	3
CCOC(=O)c1c(C)n(OCc2ccccc2)c2ccc3c(no[n+]3[O-])c12	i	i	-5	i	-9
Cc1ccc(C)c(C(=O)NC2CC(C)(C)NC(C)(C)C2)c1	i	i	4	i	2
Cc1nc2ccc(N3C(=O)CCC3=O)cc2[nH]1	i	i	3	i	13
CCOC(=O)NC(=O)CSc1nc2ccc(OCC)cc2[nH]1	·	·	10	·	-2
COc1cccc(OC)c1/C(O)=C(\C#N)c1nc2ccccc2[nH]1	·	·	12	·	32*
N#Cc1cc(N)c(Nc2ccccc2)cc1C#N	·	·	2	·	8
CCCN1Cc2cccc(C(=O)Nc3ccc(CN4CCCC4)cc3)c2C1=O	·	·	-5	·	0
Cc1ccc(C2c3sc(=O)[nH]c3SC3C(=O)NC(=O)C32)cc1 (stereo not drawn)	i	i	-1	i	-1
COc1ccc(C(=O)NC(C)c2nc3ccccc3[nH]2)cc1OC (stereo not drawn)	·	·	3	·	3
CCOc1cc(-c2nc3ccccn3c2NCC2CCCO2)ccc1O (stereo not drawn)	i	i	0	i	1
Cc1ccc(-c2noc(CN(C(=O)c3cccc(Br)c3)C(C)C)n2)cc1	·	·	-5	·	10
COc1ccc(NC(=O)CSc2nc3c(c(=O)n2-c2ccc(C)cc2)SCC3)c(OC)c1	·	·	-8	·	-3
COc1ccc(-n2nc(C(=O)NCc3ccco3)c3c4ccccc4n(C)c3c2=O)cc1	·	·	-3	·	-1
CN1CCN(CCNC(=O)c2cc3c(=O)n(C)c4ccccc4c3n2C)CC1	·	·	4	·	3
O=C(Cn1cnc2c(nnn2Cc2ccc(F)cc2)c1=O)N1CCCc2ccccc21	·	·	-8	·	2
O=C(Nc1ccc2c(c1)OCCO2)C1CCN(S(=O)(=O)c2cccs2)CC1	·	·	5	·	12
COc1cccc(N2CCN(c3ncnc4c3[nH]c3ccc(F)cc34)CC2C)c1 (stereo not drawn)	i	i	4	i	-1
CCOC(=O)N1CCN(C(=O)Cn2c(=O)sc3ccccc32)CC1	·	·	-3	·	0
CCN(CC)S(=O)(=O)c1cccc(-c2nnc(SCC(N)=O)n2CCc2ccccc2)c1	i	i	-1	i	-1
CC1CN(C(=O)CSc2nnc(-c3ccncc3)n2-c2ccccc2)CC(C)O1 (stereo not drawn)	i	i	5	i	10
CC(=O)N1CCc2cc(S(=O)(=O)NC3CCCc4ccccc43)ccc21 (stereo not drawn)	·	·	-1	·	2
COc1cc2c(cc1OC)C(C(=O)NCCN1CCOCC1)C1c3ccccc3CCN1C2=O (stereo not drawn)	·	·	1	·	-4
CCOc1ccc(NC(=O)CN(c2cc(C)cc(C)c2)S(=O)(=O)c2c(C)noc2C)cc1	i	i	-4	i	-4
COc1ccc(C(CC(=O)O)NC(=O)COc2ccccc2)cc1 (stereo not drawn)	·	·	1	·	4
O=C1c2ccccc2C(=O)N1CC(O)Cn1nnc2ccccc21 (stereo not drawn)	i	i	3	i	1
CC(=O)N(c1ccc(Br)cc1)C1C=CS(=O)(=O)C1 (stereo not drawn)	i	i	0	i	1
COc1ccc(CCNC(=O)C2CCN(S(=O)(=O)N3CCOCC3)CC2)cc1OC	·	·	-6	·	-3
COc1cccc(CN2C(=O)CCC2(C)C(=O)NC2CCCCCC2)c1 (stereo not drawn)	·	·	8	·	-11
COc1nnc(-c2ccc(C)c(S(=O)(=O)NCCO)c2)c2ccccc12	i	i	7	i	9
COCCCNC(=O)c1cc2c(=O)n(C)c3ccccc3c2n1C	·	·	0	·	8
O=C(c1nn2c(C(F)(F)F)cc(-c3ccco3)nc2c1Br)N1CCCc2ccccc21	·	·	1	·	2

The list goes on.
SMILES	VCAM-1 down imaging	VCAM-1 inhibition	FPRL1 binder	VCAM-1 up imaging	FPR ligand
Cc1ccc(-n2nc3c(c2NC(=O)c2c(-c4ccccc4Cl)noc2C)CS(=O)(=O)C3)c(C)c1	·	·	3	·	5
COc1ccc(C2CC(=O)NC3=C2C(=O)CCC3)cc1Cl (stereo not drawn)	·	·	7	·	-2
Nc1ccc(C(=O)OCCCc2nc3ccccc3[nH]2)cc1	i	i	-1	i	-2
Cc1ccc(C2N(c3ccc(Cl)c(Cl)c3)C(=O)C3CCCN32)o1 (stereo not drawn)	i	i	-3	i	-8
CN(CC(=O)N1CCN(C2CCCCC2)CC1)S(=O)(=O)c1cccc2nsnc12	i	i	-2	i	0
Cc1cccc(NC(=O)c2sc3nc(-c4ccccc4)cn3c2C)n1	·	·	-15	·	-9
COc1cccc(C2NC(CCSC)(C(=O)O)C3C(=O)N(C(C)C)C(=O)C23)c1O (stereo not drawn)	·	·	2	·	14
O=c1c2c(-c3ccccc3)csc2nc2n1CCC2	i	i	2	i	-2
O=C(c1cccc(F)c1)N1CCN(C(=O)C2CC2)CC1	·	·	2	·	-3
COc1ccc(Cl)cc1-c1nc(-c2ccc(Br)o2)no1	·	·	2	·	1

Retrieved by structure from the entries so far:
SMILES	VCAM-1 down imaging	VCAM-1 inhibition	FPRL1 binder	VCAM-1 up imaging	FPR ligand
COc1ccc(NC(=O)CSc2nc3c(c(=O)n2-c2ccc(C)cc2)SCC3)c(OC)c1	·	·	-8	·	-3
CN(CC(=O)N1CCN(C2CCCCC2)CC1)S(=O)(=O)c1cccc2nsnc12	i	i	-2	i	0

Remaining list, next part
SMILES	VCAM-1 down imaging	VCAM-1 inhibition	FPRL1 binder	VCAM-1 up imaging	FPR ligand
CCN1CCN(CCCNC(=O)Cn2cc3c(n2)CCCC3)CC1	·	·	-8	·	-15
O=C(c1ccco1)N1CCN(C(=O)c2oc(=O)c3ccccc3c2-c2ccccc2)CC1	·	·	-1	·	4
CCN1CCN(C(c2cccs2)C(C)NS(=O)(=O)c2ccc(Br)cc2)CC1 (stereo not drawn)	·	·	7	·	-4
COc1ccc(/C=N/n2cnnc2SCc2ccc(OC)cc2)cc1	i	i	10	i	2
CC(C)(C)NC(=O)COC(=O)c1ccc(O)cc1	i	i	-3	i	-3
Cc1nc(C)c(C(=O)C2=C(O)C(=O)N(CCCn3ccnc3)C2c2ccc(Cl)cc2)s1 (stereo not drawn)	·	·	24	·	38*
CCOc1ccccc1Nc1nnc(SCC(=O)N2CCCC2)s1	i	i	1	i	-4
COC(=O)c1cn(C(=O)c2ccc(Br)o2)c2ccccc12	i	i	0	i	-4
O=S(=O)(NCC(c1cccnc1)N1CCN(c2ccccc2)CC1)c1cc(F)ccc1F (stereo not drawn)	i	i	-2	i	1
CC1CCCN(C(=O)CN2CCN(C(=O)c3ccco3)CC2)C1 (stereo not drawn)	i	i	-8	i	-4

A portion from further up, as a working copy:
SMILES	VCAM-1 down imaging	VCAM-1 inhibition	FPRL1 binder	VCAM-1 up imaging	FPR ligand
CC(C)(C)NC(=O)COC(=O)c1ccc(O)cc1	i	i	-3	i	-3
Cc1nc(C)c(C(=O)C2=C(O)C(=O)N(CCCn3ccnc3)C2c2ccc(Cl)cc2)s1 (stereo not drawn)	·	·	24	·	38*
CCOc1ccccc1Nc1nnc(SCC(=O)N2CCCC2)s1	i	i	1	i	-4
COC(=O)c1cn(C(=O)c2ccc(Br)o2)c2ccccc12	i	i	0	i	-4
O=S(=O)(NCC(c1cccnc1)N1CCN(c2ccccc2)CC1)c1cc(F)ccc1F (stereo not drawn)	i	i	-2	i	1
CC1CCCN(C(=O)CN2CCN(C(=O)c3ccco3)CC2)C1 (stereo not drawn)	i	i	-8	i	-4

The listing continues.
SMILES	VCAM-1 down imaging	VCAM-1 inhibition	FPRL1 binder	VCAM-1 up imaging	FPR ligand
CCOC(=O)C1CCN(c2c(NCc3ccc(C(=O)NCCOC)cc3)c(=O)c2=O)CC1	·	·	-2	·	3
CCOC(=O)c1ccc(NC(=O)CC2SC(=NC)N(C)C2=O)cc1 (stereo not drawn)	i	i	1	i	4
COc1ccc(-n2nc(C(=O)NCC(=O)N3CCN(c4ccccn4)CC3)c3ccccc3c2=O)cc1	·	·	3	·	17
CC(=O)Nc1cccc(NC(=O)c2sc3ncn(CC(=O)N4CCCCC4)c(=O)c3c2C)c1	·	·	0	·	2
COc1cc2c(c(OC)c1)C(c1cccc(OC)c1OC)CC(=O)N2 (stereo not drawn)	·	·	2	·	-2
CC1CCN(CCC(=O)N2CCCc3c2c(=O)oc2ccc(O)cc32)CC1	·	·	-7	·	0
O=C(NCCCn1ccnc1)c1csc2ccccc12	i	i	-4	i	-6
Cc1c(C(=O)OC2CCCCC2)[nH]c2c1C(=O)CC(C)(C)C2	i	i	4	i	1
CCOC(=O)c1[nH]c(C)c(CN(CCc2ccccc2)S(C)(=O)=O)c1C	·	·	-6	·	5
CC(CCc1ccccc1)NC(=O)c1nnc(Cc2ccc(F)cc2)o1 (stereo not drawn)	·	·	-3	·	2
CC1(C)Cc2c(c(N3CCOCC3)nc3sc(C(=O)N4CCCCC4)c(N)c23)CO1	·	·	1	·	-2
COC(=O)c1[nH]c2c(c1C)C(=O)CC(c1cc(OC)ccc1OC)C2 (stereo not drawn)	i	i	8	i	6
Cc1ccccc1CS(=O)(=O)Cc1ccc(C(=O)NCc2cccnc2)o1	·	·	14	·	1
COc1ccc(-c2cc(C(F)(F)F)nc(SCC(=O)NCc3ccco3)n2)cc1OC	i	i	0	i	0
O=C(c1ccc(S(=O)(=O)N2CCOCC2)cc1)N1CCc2ccccc2C1	i	i	-1	i	12
Clc1ccc2nc(N3CCCCC3)sc2c1	·	·	4	·	-1
N#Cc1ccccc1NC(=O)CSc1nnc(-c2ccccc2)n1-c1ccccc1	i	76	4	i	6
COC(=O)c1cccc(S(=O)(=O)N2CCC(C)CC2)c1	i	i	7	i	-1
CCOC(=O)CC(=O)CSc1nc2ccccc2c(=O)n1-c1ccc(C(=O)N2CCOCC2)cc1	·	·	1	·	4
COC(=O)C1C(=O)c2c([nH]c(C(=O)OCC3CCCO3)c2C)CC1C (stereo not drawn)	·	·	2	·	1
CCN(CC)c1ccc(C2CC(=O)Nc3cc(OC)c(OC)cc32)cc1 (stereo not drawn)	·	·	-10	·	-7
O=C(COC(=O)CCC1CCCC1)Nc1ccc(Cl)cn1	i	i	6	i	0
CCc1c(C)nc2ncnn2c1NCCc1ccc(OC)c(OC)c1	i	i	1	i	0
CCN1CCCC1CNC(=O)COc1cc(=O)n(C)c2ccccc12 (stereo not drawn)	·	·	-2	·	-4
COc1cc(C2N(c3ccc(F)cc3)C(=O)C3CCCN32)cc(OC)c1OC (stereo not drawn)	·	·	4	·	2
O=C(Cn1cc2c(n1)CCCCC2)NC1CCCCCC1	·	·	4	·	-4
